# Source: PubChem
# GLA inh pH 4.5: alpha-galactosidase A (human) inhibition, pH 4.5; 230,000 tested, under 10 active; activity change, negative = inhibition, % at 105 µM; purified enzyme, 4-MU-alpha-Gal fluorescence, pH 4.5; P06280; inconclusive = small, poorly fitted or top-dose-only inhibition, or a rising curve; inactive = flat fitted curve, though single readings scatter; no compound was filed as active;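 also: 0% = full activity with enzyme and -100% = basal without enzyme; dose as in the result columns while the protocol names 77 µM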
# Target sequence (P06280 whole entry, looked up): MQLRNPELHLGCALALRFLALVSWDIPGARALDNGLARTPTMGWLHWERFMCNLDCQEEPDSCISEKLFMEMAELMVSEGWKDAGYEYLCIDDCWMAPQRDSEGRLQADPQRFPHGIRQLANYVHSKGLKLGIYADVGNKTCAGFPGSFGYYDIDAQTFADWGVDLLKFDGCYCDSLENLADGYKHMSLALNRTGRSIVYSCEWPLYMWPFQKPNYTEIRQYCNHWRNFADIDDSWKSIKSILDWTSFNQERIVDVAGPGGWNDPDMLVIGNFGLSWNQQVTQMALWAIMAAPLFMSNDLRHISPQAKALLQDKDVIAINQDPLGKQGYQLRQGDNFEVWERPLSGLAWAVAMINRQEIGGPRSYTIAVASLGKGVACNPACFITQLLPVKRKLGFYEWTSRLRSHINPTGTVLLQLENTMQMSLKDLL
# Rango release inh: prevents RanGTP from dissociating the Rango-importin beta complex; O95149+P62826; Biochemical FRET Rango-importin beta, RanGTP-induced dissociation; 340,000 tested, 0.071% active; Potency, µM (top dose mostly 46.1 µM), for inactives: at the top dose activity change, negative = inhibition; AID 540253; active means falling FRET ratio curve, often poorly fitted, with flat reads before Ran was added; inconclusive means other falling curves, or compound fluorescence or quenching; inactive means flat or rising ratio curve;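 also: potency is read from the fitted curve at half-maximal effect; % of control where 0% means no effect; nearly all actives have a fitted effect of over 45% in size; -100% = wells without RanGTP and RCC1; the record marks most hits as doubtful in a second field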
#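 Recombinant Rango FRET biosensor (EYFP–snurportin 1 IBB–cerulean CFP10) at 0.1 uM premixed with 0.25 uM importin beta in PBS, 1 mM DTT, 0.02% Tween-20, 0.1% BSA. Compound added 5 min; RanGTP-RCC1 (0.6 uM Ran, 2 mM GTP, 0.2 uM RCC1) then triggers release, read at 45 min.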
# Rango complex inh: prevents formation of the Rango-importin beta complex; Rango CFP/YFP FRET sensor + importin beta, 45 min; Potency, µM (series often up to 92.2 µM), inactives show top-dose inhibition of complex formation; 340,000 tested, 0.031% active; AID 540263; active = rising FRET ratio curve, often small or poorly fitted; inconclusive = mostly compound fluorescence or quenching in the first reads; inactive = flat curves in all reads;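 also: potency is read from the fitted curve at half-maximal effect; 0% = DMSO wells and 100% = buffer wells lacking importin beta; nearly all actives have a fitted effect of over 15% in size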
#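 Inhibition scored from the CFP 486 nm/YFP 530 nm FRET ratio 45 min after adding 0.125 microM importin beta to 50 nM Rango biosensor preincubated 5 min with compound (room temperature, PBS with DTT, Tween-20, BSA). No-importin wells as positive control.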
# miR-21 FLuc: miR-21 reporter, rising signal; Potency, µM (doses to about 38.3 µM), without a hit: at the top dose reporter change, positive = more light; HeLa miR-21 FLuc reporter, luciferase, 48 h; AID 2288; 340,000 tested, under 10 active; active = well fitted rising curve with a large enough effect; inconclusive = small, poorly fitted or top-dose-only effect; inactive = no such curve, though single readings can be large or run the other way;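 also: % of control where 0% means no effect; miR-21 action dims this reporter so a rising signal means less miR-21 action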
#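 Luminescence from a firefly luciferase reporter carrying a miR-21 binding site downstream, stably expressed under a CMV promoter in HeLa cells that make miR-21 endogenously, reports miRNA modulation after 48 h compound exposure up to approximately 40uM final.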
# Active calls of the source: *; ? = inconclusive; . = no result given; & = joins results of further samples; [ ] = remark or other dose.
Structure,Rango release inh,GLA inh pH 4.5,miR-21 FLuc,Rango complex inh
Cc1cc(C)n2nc(C(=O)N3CCCC(Nc4ccc(F)c(F)c4)C3)cc2n1 (stereo unspecified),-9%,.,-14%,-3.6%
COc1ccc(NC(=O)COC(=O)c2ccc(NS(=O)(=O)/C=C/c3ccccc3)cc2)cc1,-12%,0,-1%,4.5%
Cc1cccc(NC(=O)Nc2ccccc2[N+](=O)[O-])n1,0%,.,-32%,1.8%
C/C(N)=C(/C#N)C(=O)COC(=O)c1ccc(C)c(S(=O)(=O)N2CCCCC2)c1,-11%,3,3%,?
C=CCSc1nc(C)cc2c1C(=O)OC2,2%,2,0%,0.5%
CC(C)CC(=O)Nc1nnc(SCC(=O)NC2CCCCC2)s1,-24%,.,0%,0.8%
CC1(C)CC(NC(=O)C(=O)NCCc2ccc(Cl)cc2)CC(C)(C)N1,-14%,-16[21.1 µM],-1%,-0.6%
O=C(NC1CCCCC1)c1cc2c(cc1Cl)N1CCCCCC1=NS2(=O)=O,7%,.,.,-0.9%
Cc1cccc(NC(=O)c2ccc(C)c(S(=O)(=O)N3CCOCC3)c2)n1,-10%,.,.,0.1%
O=C(NCCc1ccccn1)c1ccc(NS(=O)(=O)c2ccc(F)cc2)cc1,14%,5,-3%,0.1%
O=C(c1cccnc1)N1CCN(S(=O)(=O)c2cccc(Cl)c2)CC1,5%,.,1%,-0.6%
CC1CCN(S(=O)(=O)c2cnc(Cl)c(Br)c2)CC1,-2%,4,0%,-2.7%
CC1CCN(S(=O)(=O)c2cc3c4c(c2)C(C)C(=O)N4CCC3)CC1 (stereo unspecified),11%,.,-10%&-16%,-2.7%
Cc1cc(C)cc(Nc2ccc(C(=O)O)cc2N)c1,-12%,18,-64%,-1.6%
Cn1c2ccccc2c2cnn(CC(=O)Nc3cccc(F)c3)c(=O)c21,16%,6,-2%,-1.1%
CCOC(=O)N1CCN(C(=O)CCc2cc(OC)c(OC)c(OC)c2)CC1,7%,.,-10%,0.2%
CCN(CC)S(=O)(=O)c1ccc(C)c(NC(=O)COC(=O)[C@@H]2CCCN2C(=O)c2cccs2)c1,10%,-1,4%,-0.2%
O=C(NC1=NCCS1)c1cc(-c2ccc(-c3ccccc3)cc2)nc2ccccc12,5%,0,-16%,-0.7%
CCCCN(C(=O)CCCc1nc2ccccc2s1)c1c(N)n(CCCC)c(=O)[nH]c1=O,8%,.,-3%,-3.3%
Fc1ccccc1CSc1nnnn1-c1ccc2c(c1)OCO2,-1%,-5,-22%,2.6%
COc1ccc(-c2nnc(SCC(=O)N3CCOCC3)o2)cc1OC,-20%,8,-13%,-0.5%
CCc1ccc(/C=C2\SC(=S)N(CCC(=O)NC3=NCCS3)C2=O)cc1,.,-2,10%,.
O=C(Nc1nc2ccccc2s1)C1=NN(c2ccccc2)C(=O)CC1,11%,4,-34%,-1.3%
CC(=O)c1cccc(NC(=O)CSc2nc(N3CCCCC3)nc(N3CCCCC3)n2)c1,0%,5,-3%,1.4%
CCC(C)NC(=O)CCS(=O)(=O)c1ccc2c(c1)n(C)c(=O)c(=O)n2C (stereo unspecified),-4%,4,-2%,-0.1%

# 4 entries out of the list above, arranged by the number in Rango release inh, high to low:
Structure,Rango release inh,GLA inh pH 4.5,miR-21 FLuc,Rango complex inh
O=C(NCCc1ccccn1)c1ccc(NS(=O)(=O)c2ccc(F)cc2)cc1,14%,5,-3%,0.1%
O=C(NC1CCCCC1)c1cc2c(cc1Cl)N1CCCCCC1=NS2(=O)=O,7%,.,.,-0.9%
O=C(NC1=NCCS1)c1cc(-c2ccc(-c3ccccc3)cc2)nc2ccccc12,5%,0,-16%,-0.7%
CC1CCN(S(=O)(=O)c2cnc(Cl)c(Br)c2)CC1,-2%,4,0%,-2.7%

# Remaining list, next part
Structure,Rango release inh,GLA inh pH 4.5,miR-21 FLuc,Rango complex inh
N=C1N(c2ccccc2)C(=S)C(=Nc2ccccc2)N1c1ccccc1,2%,.,.,-0.6%
COc1ccc(-c2cc(C)no2)cc1S(=O)(=O)N1CCCCC1,-13%,.,-6%,-1.5%
C=C(C)CNC(=O)c1ccc2nc(Cc3ccc(OC)cc3)oc2c1,-16%,.,-51%,?
O=S(=O)(c1cccc(C(F)(F)F)c1)N1CCC(CO)(CCCc2ccccc2)CC1,-18%,.,11%,-1.9%
Cn1c(=O)c2c(nc(Oc3ccccn3)n2C)n(C)c1=O,.,-3,0%,.
CC(=O)C1=C(NC(=O)c2ccccc2F)C[C@@H]2[C@H]1C2(C)C,2%,-2,-6%,0.4%
Cc1ccccc1NC(=S)Nc1ccc(Br)cc1,11%,-10,0%,1.1%
CC1CCCC(NC(=O)COC(=O)CCC(=O)c2cccs2)C1C (stereo unspecified),8%,.,.,0.2%
Cc1n[nH]c(C)c1N=Nc1ccc(Br)cc1,10%,8,-41%,0.3%
CCOc1ccc(C(C)=O)cc1CSc1nnc(-c2ccncc2)n1CCOC,6%,-2,-1%,-1.8%
COc1ccc(-n2nc3c(c2NC(=O)Cc2cccc(C)c2)CS(=O)C3)cc1 (stereo unspecified),-15%,-7,-5%,-6.3%
COc1cc(C=C2C(=O)c3ccccc3C2=O)cc(OC)c1,6%,7,2%,-0.9%
CN(C)c1nnnn1-c1ccc(Cl)cc1,0%,1,-2%,1.1%
CN(C)c1ccc(CSc2ccccc2)cc1,-10%,.,.,-3.6%
Cc1cc(Cl)ccc1NS(=O)(=O)c1c(C)[nH]c(=O)[nH]c1=O,-3%,.,2%,-2.3%
CCOc1ccc(S(=O)(=O)N(C)CC(=O)NCc2ccccn2)cc1Cl,8%,.,-14%,0.5%
CC(O)[C@H]1CN=C(N)N1CCc1cc(C(F)(F)F)cc(C(F)(F)F)c1 (stereo partly specified),35%,3,0%,1.9%
Cc1ccc(Nc2ccccc2)nn1,14%,0,-6%,1.2%
CSCCC(NS(=O)(=O)c1ccc2c(c1)OCCO2)C(=O)N(C)Cc1ccccc1F (stereo unspecified),9%,.,.,-0.9%
COc1ccc(N2C(=O)CC(n3cnc4ccccc43)C2=O)cc1 (stereo unspecified),6%,-3,-5%,-2.1%
CC(=O)c1cccc(S(=O)(=O)Nc2ccc(N3CCOCC3)cc2)c1,3%,.,-1%,1.1%
O=C(COC(=O)c1ccc(NC(=O)C2CC=CCC2C(=O)O)cc1)c1ccccc1 (stereo unspecified),-8%,.,-2%,-2.7%
CCCNC(=O)Cc1ncn[nH]1,21%,-3,-6%,-1.7%
Cc1cc(C)c(C#N)c(N2CCC(C(N)=O)CC2)n1,-9%,8,-2%,-4.4%
COc1ccc(N/N=C(/Oc2ccc([N+](=O)[O-])cc2)C(C)=O)cc1,7%,-18,0%,-0.1%

# Reprinted at random: 2 records from the list.
Structure,Rango release inh,GLA inh pH 4.5,miR-21 FLuc,Rango complex inh
N=C1N(c2ccccc2)C(=S)C(=Nc2ccccc2)N1c1ccccc1,2%,.,.,-0.6%
CCCNC(=O)Cc1ncn[nH]1,21%,-3,-6%,-1.7%

# Going on with the list.
Structure,Rango release inh,GLA inh pH 4.5,miR-21 FLuc,Rango complex inh
O=C(Nc1ccc2c(c1)CCC2)c1cccc(S(=O)(=O)N2CCN(c3ccc(F)cc3)CC2)c1,-19%,-10,8%,0.5%
C=CCS(=O)(=O)N1CCCC(N(C)CCc2ccc(OC)c(OC)c2)C1 (stereo unspecified),5%,.,0%,1.4%
Cc1ccc(OCC(=O)O/N=C(\N)c2ccncc2)cc1C,-8%,.,-41%,-2.9%
CNc1ccc([N+](=O)[O-])cc1,-3%,.,.,1.8%
Cc1ccc(NC(=O)C2CCCN2C(=O)OC(C)(C)C)cc1C (stereo unspecified),1%,-3,2%,0.0%
COC(=O)c1cn(CCOc2ccccc2OC)c2ccccc12,-11%,-9,-4%,5.1%
N#Cc1cc(-c2ccccc2)nc(Oc2ccc(Cl)cc2)n1,-3%,?,-1%,-1.7%
Cc1ccc(Oc2c(C=O)c3ccccc3n2C)cc1,?,-10,1%,?
Cc1ccc(S(=O)(=O)N[C@H](C(=O)OCC(=O)N2N=C(c3ccc(Cl)cc3)CC2c2ccco2)C(C)C)cc1 (stereo partly specified),-13%,-2,10%,1.4%
O=S1(=O)N=C(Nc2ccc(O)cc2)c2ccccc21,0%,-5,1%,0.6%
Cc1ccc(-c2ccc(S(=O)(=O)N3CC(C)OC(C)C3)cc2)cc1 (stereo unspecified),6%,.,0%,-1.9%
CCN(CC)S(=O)(=O)c1cc(NC(=O)C2CC(=O)N(Cc3ccccc3)C2)ccc1Cl (stereo unspecified),3%,.,.,0.0%
C=CC(=O)Nc1cccc(Oc2ccnc(Nc3ccc(N4CCN(C)CC4)cc3)n2)c1,18%,.,.,3.7%
CCN=C1SC(C(=O)Nc2cccc(C(=O)O)c2)CC(=O)N1CC (stereo unspecified),5%,2,-6%,1.8%
Cc1cc(N2CCCC2)ccc1NC(=O)CN1C(=O)NC2(CCCCC2)C1=O,9%,.,.,0.1%
COc1ccccc1NS(=O)(=O)NC(=O)c1cn(C)c2ccccc12,1%,.,3%,-3.0%
Cc1sc(CO)c(Sc2ccccc2)c1C(=O)O,.,-11,0%,.
COc1ccc(CNC(=O)CN2CCN(c3ccccc3)CC2)cc1,-23%,.,-9%,-5.8%
CC(=O)N1CCCc2cc(S(=O)(=O)N3CCN(c4ccccn4)CC3)ccc21,7%,-6,-1%,-1.6%
Cc1ccc(-c2nnc(N3CCN(C(=O)Cn4c(=O)n(C)c5ccccc54)CC3)c3ccccc23)cc1,-9%,-4,13%,0.4%
CC(C)c1ccc2nc(N)sc2c1,11%,-3,-8%,-0.2%
O=C1NCC(CN(c2ccccc2)c2ccccc2)O1 (stereo unspecified),2%,-1,-1%,1.1%
C[C@H](NC(=O)OC(C)(C)C)C(=O)N/N=C/C1=Cc2ccccc2OC1,27%,-3,-7%,-0.6%
CCOc1ccc(CN(C)CC(=O)Nc2cc(OC)c([N+](=O)[O-])cc2C)cc1,-10%,5,5%,-0.2%
CC(c1ccccc1)C(CC(=O)O)C(=O)Nc1ccc(Cl)c(Cl)c1 (stereo unspecified),-17%,.,0%,3.9%

# Next section
Structure,Rango release inh,GLA inh pH 4.5,miR-21 FLuc,Rango complex inh
CC1([N+](=O)[O-])COC(C=Cc2ccccc2)OC1 (stereo unspecified),0%,.,.,3.4%
COc1ccc(C(=O)CSc2nnc(Cn3nnc4ccccc43)n2C)cc1,-12%,6,-1%,-2.7%
Cc1cccc(-n2ncc3c2CCCC3NC(=O)CC(F)(F)F)c1C (stereo unspecified),-14%,.,8%,-2.7%
COCCNC(=O)C(c1ccc(O)cc1)N(Cc1ccccc1)C(=O)CCC(=O)Nc1nccs1 (stereo unspecified),-4%,.,12%,-1.3%
CC1CC(C)CN(C(=O)C2CCC(CNS(=O)(=O)c3ccccc3)CC2)C1 (stereo unspecified),-10%,.,-1%,-1.7%
Cc1cccc(NC(=O)CN2CCN(CC(=O)NCC3(N4CCCCC4)CCCCC3)CC2)c1C,-5%,.,.,-2.5%
C[C@@H]1CCC(=O)N(CC[C@H](Sc2ccc(Br)cc2)c2ccccc2)CC1,0%,.,.,-0.3%
NC1=NS(=O)(=O)NC1c1ccc(Br)cc1 (stereo unspecified),-11%,-5,0%,-3.5%
O=C(Cn1cnc2c(nnn2Cc2ccc(F)cc2)c1=O)N1CCN(c2ccccc2)CC1,21%,-6,2%,-0.8%
CCOC(=O)c1ccccc1NC(=O)Cn1cnc2c1c(=O)n(C)c(=O)n2C,-1%,-1,1%,-1.0%
O=C1CSC(c2ccccc2)N1c1ccccc1F (stereo unspecified),1%,.,1%,1.4%
CCCCn1cnc2sc3c(c2c1=N)CCCC3,-1%,-15,1%,-1.4%
CSc1nnc2c(n1)[nH]c1c(C)cccc12,4%,8,-24%,-1.9%

# Only part of the results is shown; count on the stated rates, not on these rows.
